Screening results (PubChem)
HIV Env fusion: HIV envelope-mediated fusion inhibition. HeLa-JRFL Env/CEM21 cell fusion, luciferase. inhibition, % at 12.3 µM. actives 1.1% (n = 360,000). AID 651610;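 active = mean replicate inhibition score of at least 50 and every replicate individually at or above 50; inconclusive = only one of the two criteria met; inactive = mean below 50 and not all replicates reaching 50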;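 also: 0% = plate neutral controls and 100% = maraviroc near 300 nM; one replicate is shown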
CSC inhib: cancer stem cell inhibition; cancer stem cell-like cells viability, luminescence; inhibition, % at 7.5 µM; actives 1.1% (n = 300,000);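 active = mean at 75% or more and at least half the replicates too; inconclusive = mean and replicates disagree; tested in HMLE shEcad cells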;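 also: 0% = median of negative and 100% = median of positive control wells; the first replicate is given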
UUG fidelity: yeast start codon fidelity modulation | S. cerevisiae UUG-firefly luciferase reporter, luminescence/redox ratio | activity score, % at 18.7 µM | actives 0.13% (n = 350,000) | AID 602363;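 active = replicate mean at a twofold rise or more, about +100% in these data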;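 also: firefly luciferase made from a UUG start codon reports start codon fidelity; reporter light over untreated wells divided by growth signal over untreated wells; some hits fall short of that in this replicate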
PABP polyA inh: PABP-poly(A) binding inhibition. P11940. PABP-poly(A) RNA binding, fluorescence polarization. inhibition, % at 35 µM. actives 1% (n = 290,000). AID 2014;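 active = 50% or more with normal probe brightness, or confirmed in later tests; inconclusive = above 50% with abnormal brightness, or retests that disagree; inactive = below 50% or failed in later tests; about a fifth of its hits are not listed in these tables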;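 also: calls also rest on retests at 20 µM and on dose response follow-up; controls were probe without protein and protein plus probe with vehicle; some compounds called inactive have numbers as strong as hits; many hits fall short of the cut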
Target sequence (P11940 whole entry, looked up): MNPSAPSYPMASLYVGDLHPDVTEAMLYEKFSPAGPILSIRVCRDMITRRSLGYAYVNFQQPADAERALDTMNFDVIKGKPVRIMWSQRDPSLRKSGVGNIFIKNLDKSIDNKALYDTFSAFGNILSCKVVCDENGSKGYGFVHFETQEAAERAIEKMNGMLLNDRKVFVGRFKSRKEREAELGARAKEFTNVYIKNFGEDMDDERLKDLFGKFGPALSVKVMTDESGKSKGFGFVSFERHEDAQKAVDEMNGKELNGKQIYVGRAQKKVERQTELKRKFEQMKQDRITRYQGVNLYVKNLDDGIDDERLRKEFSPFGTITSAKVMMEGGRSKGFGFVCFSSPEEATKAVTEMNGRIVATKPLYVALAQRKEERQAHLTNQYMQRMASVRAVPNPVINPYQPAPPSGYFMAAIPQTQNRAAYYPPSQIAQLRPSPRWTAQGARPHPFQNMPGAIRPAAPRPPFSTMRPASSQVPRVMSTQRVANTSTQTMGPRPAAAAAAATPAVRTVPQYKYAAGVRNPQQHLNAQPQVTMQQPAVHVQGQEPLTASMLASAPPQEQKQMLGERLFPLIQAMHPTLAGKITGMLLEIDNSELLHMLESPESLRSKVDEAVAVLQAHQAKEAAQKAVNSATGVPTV
Rce1 inh: inhibitors of yeast Ras-converting enzyme | AID 2563 | yeast membranes, quenched prenylated peptide cleavage fluorescence | calls only | actives 0.27% (n = 290,000);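 active = fall in fluorescence gain of 50% or more versus controls, with final raw signal at or below 3038400; inconclusive = same 50% fall but final raw signal above 3038400; inactive = fall in fluorescence gain under 50%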;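 also: plate controls were neutral control wells for no effect and wells lacking membranes for full effect; tested at 10 µM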
eIF4H FP inh: inhibitors of RNA binding by human eIF4H; Q15056; inhibition, % at 35 µM; actives 0.94% (n = 290,000); eIF4H fluorescence polarization binding assay; AID 2012;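 active = 50% or more with normal probe brightness, or confirmed in later tests; inconclusive = above 50% with abnormal brightness, or retests that disagree; inactive = below 50% or failed in later tests; about a fifth of its hits are not listed in these tables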;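 also: calls also rest on retests at 20 µM and on dose response follow-up; 0% = protein and probe with vehicle and 100% = probe without protein; strong numbers were not always called active; many hits fall short of the cut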
Active calls of the source: *; i = inactive; ? = inconclusive; . = no result given; [ ] = another dose, or the depositor's remark. Some of the compounds tested (hit frequency here may not be typical).

Start of the data: the first 2 records, to show the layout:
SMILES	HIV Env fusion	CSC inhib	UUG fidelity	PABP polyA inh	Rce1 inh	eIF4H FP inh
Cc1cc(OCC(=O)Nc2c(C)n(C)n(-c3ccccc3)c2=O)c2c3c(c(=O)oc2c1)CCC3	.	.	.	-7.9	.	1.1
O=C(Cn1ncc2c3ccccc3n(Cc3ccccc3)c2c1=O)N1CCC2(CC1)OCCO2	.	.	.	2.0	.	5.2

All compounds of this part (from the top)
SMILES	HIV Env fusion	CSC inhib	UUG fidelity	PABP polyA inh	Rce1 inh	eIF4H FP inh
Cc1cc(OCC(=O)Nc2c(C)n(C)n(-c3ccccc3)c2=O)c2c3c(c(=O)oc2c1)CCC3	.	.	.	-7.9	.	1.1
O=C(Cn1ncc2c3ccccc3n(Cc3ccccc3)c2c1=O)N1CCC2(CC1)OCCO2	.	.	.	2.0	.	5.2
CN1C(=O)CN=C(c2ccccc2)c2cc(Cl)ccc21	.	.	.	0.6	.	-2.1
CC1=NN(c2ccccc2)C(=O)C1/C=C1/C(=O)NC(=O)N(c2cccc(C)c2)C1=O (centres undefined)	.	.	.	2.0	.	26.7
COC(=O)C1C=C2c3cccc4[nH]cc(c34)CC2N(C)C1 (centres undefined)	.	.	.	?	.	?
CN(C)C(Cc1ccccc1)C(=O)c1cccs1 (centres undefined)	.	.	.	-1.2	.	-7.5
c1cncc(C2CCCN2)c1 (centres undefined)	.	2.9	.	.	i	.
O=C1Nc2cc(C(=O)N3CCC4(CC3)OCCO4)ccc2NC1CSCc1cccc(F)c1 (centres undefined)	.	3.4	.	.	i	.
COc1ccc2[nH]cc(C3=CCNCC3)c2c1	.	-15.1	.	.	i	.
O=C(Cc1ccncc1)N1CCCCN2[C@@H](CO)[C@H](c3ccc(C#CC4(O)CCCC4)cc3)[C@@H]2C1	.	.	39.5	.	.	.
O=C(Cc1ccncc1)N1CCCCN2[C@H](CO)[C@@H](c3ccc(C#CC4(O)CCCC4)cc3)[C@@H]2C1	.	.	15.9	.	.	.
O=C(Cc1ccccc1)N1CCCCN2[C@@H](CO)[C@H](c3ccc(-c4ccccc4)cc3)[C@@H]2C1	.	.	9.0	.	.	.
O=C(Cc1ccccn1)N1CCCCN2[C@@H](CO)[C@H](c3ccc(C#Cc4ccccc4)cc3)[C@@H]2C1	.	.	9.4	.	.	.
O=C(Cc1ccccn1)N1CCCCN2[C@H](CO)[C@H](c3ccc(-c4ccc(F)cc4)cc3)[C@H]2C1	.	.	-6.3	.	.	.
O=C(Cc1ccccn1)N1CCCCN2[C@H](CO)[C@H](c3ccc(-c4ccccc4)cc3)[C@H]2C1	.	.	-10.3	.	.	.
COc1ccc(-c2ccc([C@H]3[C@H]4CN(C(=O)Cc5ccncc5)CCCCN4[C@H]3CO)cc2)cc1	.	.	16.7	.	.	.
N#Cc1ccc(-c2ccc([C@@H]3[C@H]4CN(C(=O)Cc5ccccc5)CCCCN4[C@H]3CO)cc2)cc1	.	.	-1.4	.	.	.
O=C(Cc1ccccc1)N1CCCCN2[C@H](C1)[C@@H](c1ccc(C#Cc3ccccc3)cc1)[C@@H]2CO	.	.	11.7	.	.	.
O=C(Cc1ccccc1)N1CCCCN2[C@H](CO)[C@@H](c3ccc(C#CC4(O)CCCC4)cc3)[C@@H]2C1	.	.	7.7	.	.	.
COC(=O)[C@@H]1[C@@H](CO)[C@@H]2Cn3c(ccc(C4=CCCC4)c3=O)[C@H]1N2C(=O)CC1CC1	.	.	3.4	.	.	.
O=C(Cc1cccnc1)N1CCCCN2[C@H](CO)[C@@H](c3ccc(C#CC4CC4)cc3)[C@@H]2C1	.	.	-1.7	.	.	.
C/C=C/c1ccc([C@@H]2[C@H](CO)N3CCCCN(C(=O)Cc4cccnc4)C[C@@H]23)cc1	.	.	-9.5	.	.	.
O=C(Cc1ccccn1)N1CCCCN2[C@H](CO)[C@@H](c3ccc(C#Cc4ccccc4)cc3)[C@@H]2C1	.	.	10.7	.	.	.
COC(=O)[C@H]1[C@H](CO)[C@H]2Cn3c(ccc(-c4ccccc4)c3=O)[C@@H]1N2CCc1ccccc1	.	.	-11.6	.	.	.
COc1ccc(C#Cc2ccc([C@H]3[C@@H](CO)N4CCCCN(C(=O)Cc5ccncc5)C[C@@H]34)cc2)cc1	.	.	6.4	.	.	.
The listing continues.
SMILES	HIV Env fusion	CSC inhib	UUG fidelity	PABP polyA inh	Rce1 inh	eIF4H FP inh
O=C(O)[C@@H]1[C@@H](CO)[C@@H]2Cn3c(ccc(-c4ccncc4)c3=O)[C@H]1N2C(=O)C1CCC1	.	.	-37.6	.	.	.
O=C(Cc1cccnc1)N1CCCCN2[C@@H](CO)[C@@H](c3ccc(C#CC4CCCC4)cc3)[C@@H]2C1	.	.	2.8	.	.	.
COc1ccc(C#Cc2ccc([C@@H]3[C@H](CO)N4CCCCN(C(=O)Cc5cccnc5)C[C@@H]34)cc2)cc1	.	.	-1.6	.	.	.
O=C(Cc1cccnc1)N1CCCCN2[C@H](C1)[C@H](c1ccc(C#CC3CC3)cc1)[C@@H]2CO	.	.	1.6	.	.	.
CC=Cc1ccc2n(c1=O)C[C@H]1[C@H](CO)[C@@H](C(=O)OC)[C@@H]2N1CC1CC1 (mixture of isomers)	.	.	-3.0	.	.	.
O=C(Cc1ccccc1)N1CCCCN2[C@H](CO)[C@H](c3ccc(-c4ccccc4)cc3)[C@@H]2C1	.	.	9.8	.	.	.
COc1cccc(-c2ccc([C@@H]3[C@@H](CO)N4CCCCN(C(=O)Cc5ccncc5)C[C@@H]34)cc2)c1	.	.	-8.3	.	.	.
O=C(Cc1ccncc1)N1CCCCN2[C@@H](CO)[C@H](c3ccc(-c4ccncc4)cc3)[C@@H]2C1	.	.	13.6	.	.	.
COc1cccc(-c2ccc([C@H]3[C@H](CO)N4CCCCN(C(=O)Cc5ccncc5)C[C@@H]34)cc2)c1	.	.	-1.4	.	.	.
CCCC#Cc1ccc([C@@H]2[C@@H](CO)N3CCCCN(C(=O)Cc4ccccn4)C[C@H]23)cc1	.	.	-3.3	.	.	.
O=C(Cc1ccccn1)N1CCCCN2[C@H](CO)[C@@H](c3ccc(-c4ccccc4F)cc3)[C@H]2C1	.	.	-10.9	.	.	.
COC(=O)[C@@H]1[C@@H](CO)[C@@H]2Cn3c(cccc3=O)[C@H]1N2C(=O)C1CCC1	.	.	-4.5	.	.	.
COc1ccc(-c2ccc([C@H]3[C@H](CO)N4CCCCN(C(=O)Cc5ccccc5)C[C@@H]34)cc2)cc1	.	.	5.0	.	.	.
O=C(Cc1ccccn1)N1CCCCN2[C@@H](CO)[C@H](c3ccc(-c4ccc(F)cc4)cc3)[C@@H]2C1	.	.	-8.6	.	.	.
O=C(Cc1ccccc1)N1CCCCN2[C@H](C1)[C@@H](c1ccc(C#CC3(O)CCCC3)cc1)[C@@H]2CO	.	.	11.9	.	.	.
COc1ccc(C#Cc2ccc([C@H]3[C@H]4CN(C(=O)Cc5cccnc5)CCCCN4[C@H]3CO)cc2)cc1	.	.	10.2	.	.	.
O=C(Cc1ccccn1)N1CCCCN2[C@@H](CO)[C@@H](c3ccc(Br)cc3)[C@@H]2C1	.	.	21.7	.	.	.
COc1ccc(-c2ccc([C@H]3[C@@H](CO)N4CCCCN(C(=O)Cc5ccccc5)C[C@@H]34)cc2)cc1	.	.	16.9	.	.	.
O=C(Cc1ccccn1)N1CCCCN2[C@H](CO)[C@H](c3ccc(-c4ccccc4)cc3)[C@@H]2C1	.	.	-1.3	.	.	.
CC(C)CC#Cc1ccc([C@@H]2[C@@H](CO)N3CCCCN(C(=O)Cc4ccccn4)C[C@@H]23)cc1	.	.	6.2	.	.	.
N#Cc1ccc(-c2ccc([C@@H]3[C@H](CO)N4CCCCN(C(=O)Cc5ccccc5)C[C@@H]34)cc2)cc1	.	.	9.5	.	.	.
O=C(Cc1ccccc1)N1CCCCN2[C@H](CO)[C@H](c3ccc(C#CC4(O)CCCC4)cc3)[C@@H]2C1	.	.	20.8	.	.	.
O=C(Cc1ccccn1)N1CCCCN2[C@H](C1)[C@@H](c1ccc(C#Cc3ccccc3)cc1)[C@@H]2CO	.	.	7.9	.	.	.
C/C=C/c1ccc([C@H]2[C@@H](CO)N3CCCCN(C(=O)Cc4cccnc4)C[C@H]23)cc1	.	.	-7.5	.	.	.
O=C(Cc1cccnc1)N1CCCCN2[C@H](CO)[C@H](c3ccc(/C=C/c4ccccc4)cc3)[C@@H]2C1	.	.	-13.7	.	.	.

Three compounds drawn at random from those above:
SMILES	HIV Env fusion	CSC inhib	UUG fidelity	PABP polyA inh	Rce1 inh	eIF4H FP inh
Cc1cc(OCC(=O)Nc2c(C)n(C)n(-c3ccccc3)c2=O)c2c3c(c(=O)oc2c1)CCC3	.	.	.	-7.9	.	1.1
O=C(Cc1ccccn1)N1CCCCN2[C@H](CO)[C@H](c3ccc(-c4ccccc4)cc3)[C@H]2C1	.	.	-10.3	.	.	.
O=C(Cc1ccccc1)N1CCCCN2[C@@H](CO)[C@H](c3ccc(-c4ccccc4)cc3)[C@@H]2C1	.	.	9.0	.	.	.

Continuation.
SMILES	HIV Env fusion	CSC inhib	UUG fidelity	PABP polyA inh	Rce1 inh	eIF4H FP inh
CCCC#Cc1ccc([C@@H]2[C@@H](CO)N3CCCCN(C(=O)Cc4ccccn4)C[C@@H]23)cc1	.	.	23.5	.	.	.
O=C(Cc1cccnc1)N1CCCCN2[C@H](CO)[C@H](c3ccc(C#CC4CCCC4)cc3)[C@@H]2C1	.	.	7.1	.	.	.
COC(=O)[C@@H]1[C@@H](CO)[C@@H]2Cn3c(cccc3=O)[C@@H]2N1CC1CC1	.	.	2.5	.	.	.
O=C(Cc1ccncc1)N1CCCCN2[C@H](CO)[C@H](c3ccc(C#Cc4ccccc4F)cc3)[C@@H]2C1	.	.	7.0	.	.	.
COc1ccc(C#Cc2ccc([C@@H]3[C@H]4CN(C(=O)Cc5ccncc5)CCCCN4[C@H]3CO)cc2)cc1	.	.	2.0	.	.	.
O=C(Cc1cccnc1)N1CCCCN2[C@H](C1)[C@@H](c1ccc(C#CC3CCCC3)cc1)[C@@H]2CO	.	.	0.6	.	.	.
O=C(NCCN1CCC2(CC1)C(=O)NCN2c1ccccc1)c1cccnc1Cl	11.0	.	.	.	.	.
COC(=O)[C@@H]1[C@@H](CO)[C@@H]2Cn3c(ccc(-c4ccccc4F)c3=O)[C@H]1N2CC1CCCC1	6.7[16.7 µM]	.	.	.	.	.
C[C@H](CO)N1C[C@H](C)[C@H](CN(C)C(=O)Oc2ccc3ccccc3c2)OCc2cn(nn2)CCCC1=O	-5.2[16.7 µM]	.	.	.	.	.
C[C@H]1CN([C@@H](C)CO)C(=O)CCCn2cc(nn2)CO[C@H]1CN(C)C(=O)Oc1ccc2ccccc2c1	3.3[16.7 µM]	.	.	.	.	.
CCCN1[C@@H]2c3ccc(-c4cccc(C(=O)N(C)C)c4)c(=O)n3C[C@H]1[C@H](CO)[C@H]2C(=O)OC	1.2[16.7 µM]	.	.	.	.	.
O=C(O)[C@H]1[C@H](CO)[C@H]2Cn3c(ccc(-c4ccncc4)c3=O)[C@@H]1N2C(=O)C1CC1	10.6[16.7 µM]	.	.	.	.	.
CC(C)NC(=O)N1[C@@H]2c3ccc(-c4cccc(C(=O)N(C)C)c4)c(=O)n3C[C@H]1[C@H](CO)[C@H]2C(=O)O	-5.9[16.7 µM]	.	.	.	.	.
O=C(NCCN1CCC2(CC1)C(=O)NCN2c1ccccc1)c1ccc(OC(F)(F)F)cc1	12.9	.	.	.	.	.
Cc1cc(N2CCNC[C@H]2C)ccc1N1CC[C@@H](O)C1	-11.0	.	.	.	.	.
O=C(O)C[C@@H]1CC[C@H]2NC[C@@H](O)COC[C@@H]2O1	-2.6[16.7 µM]	.	.	.	.	.
Nc1c(Br)cc2c3c(cccc13)-c1ccccc1-2	-1.3	.	.	.	.	.
COc1cccc(-c2ccc3n(c2=O)C[C@@H]2[C@@H](CO)[C@H](C(=O)O)[C@H]3N2Cc2ccccc2F)c1	-5.3[16.7 µM]	.	.	.	.	.
O=C(NC1CCCCC1)N1Cc2ccc(Br)cc2-n2nncc2C1	11.2	.	.	.	.	.
O=C(NCCN1CCC2(CC1)C(=O)NCN2c1ccccc1)c1ccc(Cl)cc1	10.5	.	.	.	.	.
CC=Cc1ccc2n(c1=O)C[C@@H]1[C@@H](CO)[C@H](C(=O)OC)[C@H]2N1CC1CCOCC1 (mixture of isomers)	-6.9[16.7 µM]	.	.	.	.	.
